miR-21 reporter: raises the signal of a miR-21 reporter; HeLa miR-21 FLuc reporter, luciferase, 48 h; Potency, µM (titrated, usually from 38.3 µM), without a hit: at the top dose reporter change, positive = more light; 340,000 tested, under 10 active; AID 2288; active = well fitted rising curve with a large enough effect; inconclusive = small, poorly fitted or top-dose-only effect; inactive = no such curve, though single readings can be large or run the other way;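 further: % of control where 0% means no effect; miR-21 action dims this reporter so a rising signal means less miR-21 action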
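Luminescence from a firefly luciferase reporter carrying a miR-21 binding site downstream, stably expressed under a CMV promoter in HeLa cells that make miR-21 endogenously, reports miRNA modulation after 48 h compound exposure up to approximately 40uM final.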
Rango-impB inh: Rango-importin beta binding inhibition; Q14974; Rango CFP/YFP FRET sensor + importin beta, 45 min; Potency, µM (titrated, usually from 92.2 µM), without a hit: at the highest dose inhibition of complex formation; actives 0.031% (n = 340,000); AID 540263; active = rising FRET ratio curve, often small or poorly fitted; inconclusive = mostly compound fluorescence or quenching in the first reads; inactive = flat curves in all reads;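 further: potency means the concentration at half of the fitted maximal effect; 0% = DMSO wells and 100% = buffer wells lacking importin beta; nearly all actives have a fitted effect of over 15% in size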
Target sequence (Q14974 whole entry, looked up): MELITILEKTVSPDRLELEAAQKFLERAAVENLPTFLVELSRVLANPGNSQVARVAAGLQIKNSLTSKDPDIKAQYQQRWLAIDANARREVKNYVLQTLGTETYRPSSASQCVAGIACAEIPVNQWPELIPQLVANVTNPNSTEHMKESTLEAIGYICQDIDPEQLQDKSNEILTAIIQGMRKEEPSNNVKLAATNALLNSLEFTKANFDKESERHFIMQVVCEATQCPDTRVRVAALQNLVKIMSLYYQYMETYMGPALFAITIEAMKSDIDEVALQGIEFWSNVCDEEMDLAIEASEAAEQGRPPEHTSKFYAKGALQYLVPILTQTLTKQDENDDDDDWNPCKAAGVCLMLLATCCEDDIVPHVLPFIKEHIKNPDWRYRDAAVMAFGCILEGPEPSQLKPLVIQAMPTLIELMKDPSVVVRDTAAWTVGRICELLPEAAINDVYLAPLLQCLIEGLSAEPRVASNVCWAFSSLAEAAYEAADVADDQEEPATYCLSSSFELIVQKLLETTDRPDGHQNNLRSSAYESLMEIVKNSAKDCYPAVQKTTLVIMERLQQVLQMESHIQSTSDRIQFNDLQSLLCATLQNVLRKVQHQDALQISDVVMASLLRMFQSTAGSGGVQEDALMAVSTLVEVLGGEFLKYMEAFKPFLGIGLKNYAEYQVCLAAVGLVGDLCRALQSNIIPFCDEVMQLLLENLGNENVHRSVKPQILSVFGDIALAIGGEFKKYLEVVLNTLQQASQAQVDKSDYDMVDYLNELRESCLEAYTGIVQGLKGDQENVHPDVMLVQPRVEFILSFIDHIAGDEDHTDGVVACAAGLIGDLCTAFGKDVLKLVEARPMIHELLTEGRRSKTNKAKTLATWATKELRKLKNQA
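FRET biosensor (snurportin 1 IBB flanked by EYFP and cerulean), 50 nM, with compound 5 min, then 0.125 microM importin beta in PBS, 1 mM DTT, 0.02% Tween-20, 0.1% BSA. CFP/YFP ratio read after 45 min at room temperature; pre-read flags interference.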
GLA inh pH 4.5: inhibitors of human alpha-galactosidase A at pH 4.5 | P06280 | purified enzyme, 4-MU-alpha-Gal fluorescence, pH 4.5 | activity change, negative = inhibition, % at 105 µM | 230,000 tested, under 10 active | AID 1467; inconclusive = small, poorly fitted or top-dose-only inhibition, or a rising curve; inactive = flat fitted curve, though single readings scatter; no compound was filed as active;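 further: 0% = full activity with enzyme and -100% = basal without enzyme; dose as in the result columns while the protocol names 77 µM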
Rango dissoc inh: inhibition of RanGTP-driven Rango-importin beta dissociation; O95149+P62826; Biochemical FRET Rango-importin beta, RanGTP-induced dissociation; Potency, µM (titrated, usually from 46.1 µM), without a hit: at the highest dose activity change, negative = inhibition; actives 0.071% (n = 340,000); active means falling FRET ratio curve, often poorly fitted, with flat reads before Ran was added; inconclusive means other falling curves, or compound fluorescence or quenching; inactive means flat or rising ratio curve;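 further: potency means the concentration at half of the fitted maximal effect; % of control where 0% means no effect; nearly all actives have a fitted effect of over 45% in size; -100% = wells without RanGTP and RCC1; the record marks most hits as doubtful in a second field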
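Two FRET readings bracket the reaction: one 5 min after compound meets Rango–importin beta, another 45 min after RanGTP-RCC1 (0.6 uM Ran, 0.2 uM RCC1, 2 mM GTP) is added. Only the second defines inhibition.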
Numbers without * were called inactive; u = inconclusive; x = no result given. Some of the compounds tested; rates above refer to the full screens.

structure	miR-21 reporter	Rango-impB inh	GLA inh pH 4.5	Rango dissoc inh
COC(=O)C1=C[C@@H](C(=O)OC)[C@@H]2C3=C(C(=O)[C@@]2(C)NC(=O)c2ccccc2)[C@H](C)C(C(=O)OC)=C(C(=O)OC)[C@@H]3C1	x	-2.7%	x	11%
CCCOC(=O)c1ccc(NC(=O)CC(C)(C)C)cc1	-46%	u	4	0%
Cc1cccc(NC(=O)CN2C(=O)N/C(=C/c3cc(C)n(C)c3C)C2=O)c1	-5%	u	2	u
CCN(CC)c1nc2ccccc2nc1C(C#N)C(=O)NCCc1ccccc1 (stereo not given)	0%	u	1	u
COc1cccc(NC(=O)Nc2cc(C)ccc2F)c1	-28%	-4.2%	8	8%
Cc1cc(C)cc(NC(=O)NN2C(C)CCCC2C)c1 (stereo not given)	7%	8.3%	-1	6%
COCCNC(=O)COC(=O)/C=C/c1cnc2ccccc2n1	-7%	1.0%	1	0%
CCOCCn1c(CN2CCN(c3ccccc3)CC2)nc2c1c(=O)n(C)c(=O)n2C	x	-1.7%	x	0%
N#CCCC12CCCCC1=Nc1ccccc12 (stereo not given)	-1%	u	6	u
CCOC(=O)C1(CCOc2ccccc2)CCN(Cc2ccc(O)c(OCC)c2)CC1	20%	-2.9%	x	18%
Cc1cc(C)c(C#N)c(Nc2ccccc2F)n1	-1%	0.2%	x	-9%
Cn1cccc1C1C=C(c2ccc(C(C)(C)C)cc2)Nc2ncnn21 (stereo not given)	x	u	x	u
COc1ccc(C(=O)NCC(=O)OCC(=O)NCc2cccs2)cc1	1%	-0.9%	0	-9%
O=C(Cn1nc(CNc2ccc(Br)cc2)[n+]2c1CCCCC2)c1ccc([N+](=O)[O-])cc1	18%	-2.4%	-9	-5%
O=C(CN1C(=O)CCC1=O)Nc1nc(-c2ccc(Cl)s2)cs1	0%	3.2%	-23	19%
COC(c1ccccc1)c1nnc(CCC(=O)N2CCN(Cc3cccs3)CC2)o1 (stereo not given)	-2%	0.0%	6	-4%
CCO[C@@H]1OC(C(=O)NC2CC2)=C[C@H](C2CCCCC2)[C@H]1CCCO	x	1.1%	x	14%
CCC(CO)NCc1ccc(Br)cc1 (stereo not given)	-4%	5.0%	7	-5%
CC(OC(=O)CN(C)S(=O)(=O)c1ccc(Cl)cc1)C(=O)Nc1cccc(Cl)c1 (stereo not given)	1%	-7.6%	-16	-17%
Cc1ccc(N2CCN(CCc3nc4cc(NC(=O)c5ccco5)ccc4n3C)CC2)cc1	7%	-6.3%	0	-3%
CC(=O)Nc1ccc(NC(=O)Cn2ccc([N+](=O)[O-])n2)cc1	1%	-4.1%	-4	8%
CCOC(=O)c1c(C)c(C(=O)NCCc2ccccc2)c(C)n1C	-66%	0.1%	-2	41%
COc1ccc(-c2ccc(OC)c([C@H]3[C@H]4C=CC[C@@H](C)[C@@H]4C(=O)N3Cc3ccccc3)c2)cc1OC	0%	-0.5%	-5	23%
Cc1cccc(NC(=S)NCC(c2cccnc2)N(C)C)c1C (stereo not given)	1%	-3.8%	2	11%
Cc1nc2cc3ccccc3cc2n1C	-26%	-1.2%	4	-14%
COc1ccc(-c2cc(-c3cc(C)ccc3O)[nH]n2)cc1	-60%	0.4%	-10	-5%
CCOc1ccc(NC(=O)C2CC(=O)N(CCc3ccccc3)C2)cc1OC (stereo not given)	x	-0.9%	x	-16%
CCN(CC)c1ccc(C=Nc2ccccc2C)c(O)c1	4%	-3.1%	-12	-8%
Cc1cc(C(=O)CSc2nnc(Nc3ccccc3F)s2)c(C)n1CC1CCCO1 (stereo not given)	1%	-0.2%	-6	-19%
O=C(CSc1nnc(-c2ccc(F)cc2)o1)N1CCN(C(=O)c2ccco2)CC1	-3%	0.7%	6	-9%
O=C(CCN1C(=O)c2cccc3cccc(c23)C1=O)N1CCN(Cc2ccc3c(c2)OCO3)CC1	-3%	-5.7%	-2	6%
Cc1ccc(NC(=O)Nc2ccc3c(c2)C(=O)OC3)cc1Cl	-20%	1.3%	2	3%
CC(C)c1ccc(S(=O)(=O)N2CCN(C(=O)c3ccncc3)CC2)cc1	x	0.4%	x	46%
Nc1ccc(C(=O)OCC(=O)N2CCOCC2)cc1[N+](=O)[O-]	-51%	-4.8%	1	-9%
CCc1c(C2(O)CCCCC2)[nH]c2ccc(C(=O)OC)cc12	x	2.4%	x	-14%
O=C(N/N=C/c1cn[nH]c1-c1ccc(F)cc1)c1ccncc1	0%	-3.4%	2	7%
CC(C)Cn1c(N)c(C(=O)COC(=O)c2cccn2C)c(=O)n(C)c1=O	x	-3.2%	x	2%
Cc1ccc(C(=O)NCCNC(=O)COc2ccccc2Cl)cn1	0%	1.1%	x	-1%
COc1cccc(CC2(CO)CCCN(Cc3c(C)cc(C)cc3-n3cccn3)C2)c1 (stereo not given)	7%	-1.5%	-6	5%
COc1ccccc1N(C)S(=O)(=O)c1ccc(C(=O)OCC(=O)Nc2ccc(C(N)=O)cc2)cc1	x	-2.1%	x	13%
CCOC(=O)c1ccc(OCC(=O)c2ccc(O)cc2O)cc1	-32%	8.8%	12	14%
O=[N+]([O-])c1cc([N+](=O)[O-])c(Oc2cccc(Cl)c2Cl)cc1NN1CCCCC1	1%	-0.1%	x	17%
O=S(=O)([O-])CCC[n+]1ccc(Oc2ccccc2)cc1	-3%	1.9%	x	0%
CCCN1CCC(N2CCN(c3ccc([N+](=O)[O-])cc3)CC2)CC1	-7%	0.4%	x	13%
CC(C)c1ccc(S(=O)(=O)N2CCN(C(=O)c3cc(-c4ccccc4)n[nH]3)CC2)cc1	0%	2.8%	x	2%
Cc1[nH]c2ccccc2c1C(=O)COC(=O)C1CCC(=O)N1 (stereo not given)	-5%	-0.6%	-1	10%
Cc1cc(/C=N/NC(=O)c2cccc(F)c2)c(C)n1-c1ccccc1	-29%	3.1%	-6	2%
C=CCNC(=S)N/N=C/c1cccc([N+](=O)[O-])c1	0%	0.6%	7	-6%
O=C(NCc1n[nH]c(=S)n1-c1cccc(Cl)c1)c1cccs1	3%	0.6%	5	6%
Cn1cnnc1Sc1nc2ccccc2nc1NS(=O)(=O)c1ccccc1	-4%	-3.0%	-3	-13%

Structures shown so far that have a furan ring, fused or not:
structure	miR-21 reporter	Rango-impB inh	GLA inh pH 4.5	Rango dissoc inh
Cc1ccc(N2CCN(CCc3nc4cc(NC(=O)c5ccco5)ccc4n3C)CC2)cc1	7%	-6.3%	0	-3%
O=C(CSc1nnc(-c2ccc(F)cc2)o1)N1CCN(C(=O)c2ccco2)CC1	-3%	0.7%	6	-9%

Following part:
structure	miR-21 reporter	Rango-impB inh	GLA inh pH 4.5	Rango dissoc inh
CC(C)Oc1cccc(C(=O)NC(=S)Nc2ccccc2N2CCOCC2)c1	0%	2.3%	x	3%
NC(=O)CSc1nc2c(sc(=S)n2-c2ccccc2)c(=O)[nH]1	4%	0.1%	x	9%
NS(=O)(=O)c1ccc(CCNC(=O)c2cc(=O)[nH]c3ccccc23)cc1	0%	3.8%	x	0%
COc1c(OC2OC(C(=O)O)C(O)C(O)C2O)cc(O)c2c(=O)cc(-c3ccccc3)oc12 (stereo not given)	-18%	-1.5%	-8	1%
O=C1CC(c2ccccc2)CC(O)=C1C=NCc1ccccc1Cl (stereo not given)	22%	-0.5%	4	-10%
CN(C)c1ccnc(SCc2ccccc2Cl)c1C#N	-56%	-1.7%	5	-6%
O=C(O)c1ccccc1N/C=C\[N+](=O)[O-]	0%	0.1%	5	-11%
O=C(NC(=S)NCc1ccc2c(c1)OCO2)c1ccccc1	-13%	-2.3%	-3	28%
CCOC(=O)Nc1ccc2c(COC(=O)CNS(=O)(=O)c3cccc(Br)c3)cc(=O)oc2c1	-21%	1.1%	3	4%
COc1ccc(-c2noc(CCC(=O)N3CCN(c4ccc(Br)cc4)CC3)n2)cc1	x	u	x	u
CCCN(C(=O)COc1ccc(Cl)cc1Cl)c1c(N)n(Cc2ccccc2)c(=O)[nH]c1=O	-2%	u	3	-7%
NC(=O)CS(=O)(=O)c1nc2ccccc2n1Cc1ccccn1	0%	-2.0%	-1	7%
Cc1oc(-c2ccccc2F)nc1CS(=O)CC(=O)NCc1cccs1 (stereo not given)	-6%	3.5%	5	1%
COc1ccc(N=C2SCC(=O)N2CCc2ccc(OC)c(OC)c2)cc1	0%	-3.1%	0	-7%
COc1cccc(CCNC(=O)C2CCC(=O)N(C3CC3)C2)c1OC (stereo not given)	-2%	-1.4%	x	4%
Cn1nccc1C(=O)Nc1sc2c(c1C(N)=O)CCCC2	-52%	0.8%	15	1%
CC(C)Nc1nc(NC(C)C)nc(NS(=O)(=O)c2ccc(N)cc2)n1	-1%	0.7%	3	14%
CCCCS(=O)(=O)N1CCCC(C(=O)N2CCOCC2)C1 (stereo not given)	5%	4.6%	x	3%
Cc1cc(Br)cc(Cl)c1OCC(=O)NC(=O)NCc1ccccc1	-10%	-0.9%	5	-6%
COc1ccccc1N1CCN(/N=C/c2ccc(OC)c(OC)c2OC)CC1	-16%	-1.4%	1	23%
O=C(C1CCCO1)N1CCN(C(=S)Nc2ccccc2F)CC1 (stereo not given)	-4%	-5.6%	-1	-10%
CCN(CC(=O)NCc1cccs1)c1ccc(S(=O)(=O)N2CCN(C)CC2)cn1	-5%	0.8%	-1	6%
COc1ccc(C(=O)NC(C)c2nnc(SCC(=O)NC3CCCC3)n2C)cc1 (stereo not given)	0%	-4.2%	x	21%
O=C1CCCC(O)=C1N=Nc1ccc(Cl)c(Cl)c1	3%	-3.8%	-1	-1%
O=C(CC1C(=O)NCCN1Cc1cccc(F)c1)NCCCCCN1CCOCC1 (stereo not given)	-5%	0.1%	x	-5%
CCOc1cccc(CNCc2cccnc2)c1OCc1ccccc1	3%	2.0%	-8	-5%
CC(=O)Oc1ccccc1C(=O)NC(C)CCc1ccccc1 (stereo not given)	2%	u	x	-8%
Cc1onc(-c2c(F)cccc2Cl)c1C(=O)NCc1cccs1	-8%	u	0	-2%
Cc1cc2occ(CC(=O)N(C)CC(=O)Nc3ccccc3C(F)(F)F)c2cc1C	x	-0.3%	x	-1%
CC(C)(C)n1nnnc1C(c1cccs1)N1CCN(Cc2ccc3c(c2)OCO3)CC1 (stereo not given)	-13%	6.6%	-6	15%
COc1ccc(NC(=O)c2ccccc2N(Cc2ccccc2)S(C)(=O)=O)cc1OC	3%	2.5%	-4	2%
Cc1ccc(S(=O)(=O)N2CC(=O)Nc3ccccc32)c(C)c1NS(C)(=O)=O	-4%	6.9%	x	-4%
Cc1ccc(Cn2c(N3CCCCCC3)nc3c2c(=O)[nH]c(=O)n3C)cc1	-9%	1.5%	-3	-17%
NC(=O)CC(NC(=O)Cc1cccc2ccccc12)c1ccc(N2CCC(N3CCCC3)CC2)c([N+](=O)[O-])c1 (stereo not given)	0%	-4.4%	x	11%
COc1ccc(C(C)(C)C)cc1NC(=O)CCNC(=O)c1ccco1	-3%	0.1%	x	6%
CN(Cc1ccccc1)C(=O)c1cccc(NC(=O)Cc2cccc(NC(=O)C3CCN(C(=O)C4CCC4)CC3)c2)c1	x	-2.3%	x	10%
Cc1cccc(SCC(=O)Nc2ccc3c(c2)OCCO3)c1	-49%	-1.0%	x	1%
O=C(COc1ccccc1C(=O)NCc1ccncc1)Nc1ccc(Br)cc1	-8%	-0.1%	3	-18%
CC(C)Oc1ccc(N2CC(C(=O)Nc3ccccc3C(=O)NC3CC3)CC2=O)cc1 (stereo not given)	x	-1.3%	x	-1%

An excerpt of these results, field by field.
Cc1cc2occ(CC(=O)N(C)CC(=O)Nc3ccccc3C(F)(F)F)c2cc1C
- miR-21 reporter: x
- Rango-impB inh: -0.3%
- GLA inh pH 4.5: x
- Rango dissoc inh: -1%

CC(C)(C)n1nnnc1C(c1cccs1)N1CCN(Cc2ccc3c(c2)OCO3)CC1 (stereo not given)
- miR-21 reporter: -13%
- Rango-impB inh: 6.6%
- GLA inh pH 4.5: -6
- Rango dissoc inh: 15%
